Sfp PPTase inh: Sfp phosphopantetheinyl transferase inhibition. Biochemical Sfp PPTase activity, qHTS. Potency, µM, for the others: max response, negative = inhibition, actives largely listed as inhibitors. 310,000 compounds, 3.5% hits. AID 1490; active means well fitted inhibition curve with a large enough effect; inconclusive means small, poorly fitted or top-dose-only effect, or another doubt; inactive means no such curve, though single readings can be large or run the other way;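 further: the enzyme is Sfp with the accession as filed and its product quenches rhodamine fluorescence; potency means the concentration at half of the fitted maximal effect; 0% = enzyme reaction without inhibitor and -100% = no enzyme wells; top concentration of the series not given in the record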
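Buffer: 50 mM Hepes-Na pH 7.6, 10 mM MgCl2, 0.01% Nonidet P-40, 0.01% BSA. Enzyme 15 nM, pre-exposed to compound 15 min; substrates then added and fluorescence change tracked over 30 min.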
TRPML1 ag: human mucolipin-1 channel agonism; 410,000 compounds, 0.12% hits; activation, % (no concentration beside the values); TRPML1-expressing cells, Ca2+ dye fluorescence, FDSS; host cell line not named in the record; reference of the full effect not given here; Q9GZU1; in the data active = activation above about 50%; inconclusive = about 30% to 50%; inactive = below about 30%; further: 0% is about no effect; the text of the record puts the active cut at 80%
Target sequence (Q9GZU1 whole entry, looked up): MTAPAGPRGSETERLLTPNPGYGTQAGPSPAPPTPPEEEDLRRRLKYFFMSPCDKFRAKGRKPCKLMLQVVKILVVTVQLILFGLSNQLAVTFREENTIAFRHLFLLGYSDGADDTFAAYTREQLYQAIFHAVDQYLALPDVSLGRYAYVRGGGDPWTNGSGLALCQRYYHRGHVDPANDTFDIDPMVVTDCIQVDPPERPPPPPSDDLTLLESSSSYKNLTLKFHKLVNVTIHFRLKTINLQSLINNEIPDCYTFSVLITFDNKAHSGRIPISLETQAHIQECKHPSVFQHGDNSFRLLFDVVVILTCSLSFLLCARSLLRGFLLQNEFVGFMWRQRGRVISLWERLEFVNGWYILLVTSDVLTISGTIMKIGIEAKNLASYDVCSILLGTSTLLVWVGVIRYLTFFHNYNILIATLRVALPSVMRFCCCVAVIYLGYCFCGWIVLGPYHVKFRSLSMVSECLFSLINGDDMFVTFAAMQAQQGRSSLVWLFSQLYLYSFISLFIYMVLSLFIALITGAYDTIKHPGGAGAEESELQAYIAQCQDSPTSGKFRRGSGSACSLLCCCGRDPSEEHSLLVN
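Cells: TRPML1-DL, 1X Tet inducer, ~16 h at 37 degrees C/5% CO2. Dye: ABD Ca8 no-wash + quencher, 45-90 min RT. Read: 10 s baseline, compound add, 110 s agonist phase; 54-4 EC80 (4uM final), 110 s antagonist phase.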
ClpP mod: qHTS Assay for Activators of ClpP; AID 651965, 2013; 340,000 compounds, 1.9% hits; purified B. subtilis ClpP, FRET peptide cleavage, 20 min; Potency, µM (top dose mostly 57.5 µM), without a hit: top-dose activity change, negative = active; active = well fitted falling curve with a large enough effect; inconclusive = small, poorly fitted or top-dose-only effect; inactive = no such curve, though single readings can be large or run the other way; further: potency means the concentration at half of the fitted maximal effect; the source files actives as falling curves though it sought activators and does not explain the sign; nearly all actives have a fitted effect of over 65% in size; many hits overshoot -100%
Target sequence (P80244 whole entry, looked up): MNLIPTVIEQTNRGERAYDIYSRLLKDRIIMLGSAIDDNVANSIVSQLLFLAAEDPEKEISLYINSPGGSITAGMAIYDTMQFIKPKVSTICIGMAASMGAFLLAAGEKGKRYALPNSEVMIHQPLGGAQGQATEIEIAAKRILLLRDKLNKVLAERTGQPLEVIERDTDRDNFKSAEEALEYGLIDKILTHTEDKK
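FRET quenching reversal measured ClpP activation: 10 microg/mL B. subtilis ClpP at pH 8 with the FRET-FV decapeptide, read at 430 nm after 320 nm excitation. The 20-min minus 0-min signal was scaled between DMSO/no-enzyme wells and ADEP (5.8 microM final).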
TRPV1 PAM: human TRPV1 potentiation | AID 540277 | TRPV1-expressing cells, Fluo-8 calcium influx, capsaicin EC20 potentiation; host cell line not named in the record; control for the full effect not named in the record | Q8NER1 | potentiation, % at 8.33 µM | 320,000 compounds, 0.02% hits; active means potentiation above 80%; inconclusive means 30% to 80%; inactive means below 30%; further: 0% is about no effect
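Fluo-8 calcium influx in TRPV1-expressing cells, kinetic read (ex 480/em 520 nm). Compound added and read 3 min for agonist activity, followed by capsaicin at EC20 final and 2 min further read for enhancement.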
PINK1 expr mod: PINK1 expression modulation; PINK1 immunofluorescence, high-content cytometry, 24 h; Potency, µM (titrated, usually from 76.6 µM), inactives show at the highest dose activation (PINK1 increase), usual class: activators; 410,000 compounds, 0.2% hits; AID 624263; active = well fitted activation curve with a large enough effect; inconclusive = small, poorly fitted or top-dose-only effect; inactive = flat fitted curve, though single readings scatter; cell line not stated here;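 further: potency means the concentration at half of the fitted maximal effect; % of control where 0% means no effect; nearly all actives have a fitted effect of over 65% in size; a mitochondrial uncoupler was the plate control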
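Stable cell line, 250 cells/well, 12 h attachment; compounds pinned at 5 concentrations, 24 h; CCCP control. Fixed with nuclear dye, primary antibodies 12 h at 10 degrees C, secondary plus cell stain; laser-scanning cytometer read.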
TRPML1 inh: inhibitors of human TRPML1 channel; activity change, negative = inhibition, % (concentration not given with the values); Q9GZU1; TRPML1-inducible cells, Ca2+ dye fluorescence, FDSS; stronger effect = lower value; inhibition of EC80 agonist-evoked calcium signal; 390,000 compounds, 0.02% hits; AID 624415; in the data active means activity change below about -50%; inconclusive means about -30% to -50%; inactive means above about -30%;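 further: stimulus is agonist 54-4 at its EC80 concentration; on the % scale 0 is the no-effect control and ±100 the full control effect; the text of the record puts the active cut at -80%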
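Tet-induced TRPML1-DL cells loaded with Ca8 no-wash calcium dye were read kinetically on FDSS. Compound addition was followed by EC80 agonist 54-4 (4 uM final); inhibition was read over 110 s.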
Menin-MLL FL inh: displaces fluorescein MLL peptide from human menin. Fluorescence polarization, fluorescein-MLL peptide displacement from menin. FP activity change, % at 61.4 µM. 290,000 tested, under 10 active. AID 1766; inconclusive = falling polarisation curve, or a change in total fluorescence; inactive = total fluorescence flat and polarisation flat or rising; no compound was filed as active; the % refers to the polarisation; negative = inhibition;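 further: % of control where 0% means no effect; inhibitors lower the polarisation; unlabelled MLL peptide was the positive control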
The depositor's hits bear a star; ? = inconclusive; . = no result given; & = joins results of further samples; [ ] = another dose, or the depositor's remark.

compound	Sfp PPTase inh	TRPML1 ag	ClpP mod	TRPV1 PAM	PINK1 expr mod	TRPML1 inh	Menin-MLL FL inh
CCS/C(N)=N/N=C/c1cc(C)ccc1O	7%	-0.1	2.1%	-5	-2.7%	7	-0.6
CCOC(=O)c1c(NC(=O)c2cc(=O)c3cc(Cl)ccc3o2)sc(C)c1C	.	2.2	0.5%	.	3.8%	24	.
O=C(CCl)Nc1ccc(-c2ccccc2)cc1	19%	-0.2	2.1%	10	-2.8%	1	0.2
CCOC(=O)C1=C(C)NC(=O)NC1c1ccc(-c2ccccc2F)o1 (centres undefined)	8%	-0.9	-1.4%	-11	7.0%	-8	9.1
Cc1ccc(C)c(N2CCN(C(=O)c3cc4cc5ccc(C)cc5nc4o3)CC2)c1	.	-1.4	-3.7%	.	0.1%	3	.
Cc1ccc(NC(=O)CNC(=O)c2ccc(C(C)(C)C)cc2)cc1S(=O)(=O)N1CCOCC1	.	3.6	.	.	-0.9%	-3	.
Cc1ccc(NC(=O)COC(=O)Cn2cnc3ccccc32)c([N+](=O)[O-])c1	21%	-0.8	-4.5%	1	-0.3%	-11	-3.0
Cn1c(=O)c2c(nc(Br)n2CCc2ccccc2)n(C)c1=O	-7%	0.0	-4.8%	-12	-2.8%	-1	-0.9
COc1ccccc1N1CCN(C(=O)CCNC(=O)Cn2ccc3ccccc3c2=O)CC1	3%	-0.4	.	9	1.0%	-2	-0.6
COc1ccc(C2CC(c3ccc4ccccc4c3OC(C)=O)=NN2C(=O)/C=C/c2ccccc2)cc1 (centres undefined)	-6%	0.0	-29%	4	-0.5%	-8	13
Cc1ccc(S(=O)(=O)NC(CC(=O)O)c2ccco2)cc1 (centres undefined)	12%	1.2	-2.6%	-2	4.7%[38.3 µM]	5	1.4
COC(=O)c1[nH]c2cc(OC)ccc2c1N=CN(C)C	-10%	0.4	-20%	-11	1.2%	-11	4.5
CCCNC(=O)C1(C)CCCN(Cc2cc(-c3ccccc3)n(C)n2)C1 (centres undefined)	.	-1.0	-5.8%	.	2.9%	.	.
N#Cc1nc(-c2ccco2)oc1NCCN1CCOCC1	8%	-0.3	13µM*	3	24%[38.3 µM]	-3	2.5
O=C(NCc1ccccn1)c1ccc(OC2CCN(Cc3cccs3)CC2)cc1	19%	0.4	1.7%	18	0.2%	-15	-2.8
COc1ccc(S(=O)(=O)CCC(=O)N2CC(=O)N(CCc3ccccc3)C(=O)C2)cc1	-7%	1.8	-0.6%	0	1.5%	?	1.9
Cc1ccc(S(=O)(=O)NC2(C(F)(F)F)C(=O)Nc3c2c(=O)[nH]c(=O)n3-c2ccccc2)cc1 (centres undefined)	1%	0.9&-0.1	-2.6%&0.3%	8	-0.6%&1.8%	3&2	3.0
COc1ccc2c(Cl)c(-c3nnc(SCC(N)=O)n3C)sc2c1	5%	-0.1	-4.6%	3	-0.5%	-20	4.1
O=C(c1nc2ccccc2[nH]1)c1ccccc1[N+](=O)[O-]	6%	1.8	.	3	1.6%	25	3.5
Oc1ccccc1C1=NN(c2ccccc2)C(c2ccccc2)C1 (centres undefined)	-9%	0.7	3.7%	-8	-1.7%	-12	-0.7
COc1ccc(C2(C(=O)NCCc3ccccc3)CCCC2)cc1OC	8%	1.1	-0.4%	-16	-0.6%	-16	-4.4
CN(C)c1nc(Nn2cnnc2)nc(N(C)C)n1	-9%	0.9	.	14	5.1%	-11	-0.3
Cc1ccc(S(=O)(=O)N2CCCc3cc(NS(=O)(=O)c4cc(F)ccc4F)ccc32)cc1	.	1.2	0.2%	.	1.8%	78	.
CC(C)(C)CC(=O)NCc1ccc(F)cc1	4%	0.1	0.1%	4	-0.4%	1	3.2
O=S(=O)(Nc1nc2c(s1)CCCC2)c1ccc2ccccc2c1	15%	-0.6	1.2%	12	0.0%	13	8.0
CCOc1ccc(N(C)C(=O)CCc2nnc3ccc(NCc4ccco4)nn23)cc1	9%	0.8	0.0%	7	0.2%	33	-0.7
Cc1ccc(NC(=O)C(C)Sc2nc3c(c(=O)[nH]2)CCCC3)cc1Cl (centres undefined)	.	1.1	0.9%	.	-0.7%	3	.
CN1CCN(CC(=O)NN2CC(=O)N(c3ccc(F)cc3)CC2=O)CC1	0%	2.7	0.9%	1	2.0%	21	1.8
CCOC(=O)NC(=O)CSc1nc2ccc(C)cc2[nH]1	2%	0.5	.	-9	0.5%	-16	-2.4
CS(=O)(=O)N1CCC2(CCCN(c3ccncc3)C2)CC1	5%	.	.	.	-0.4%	.	0.2
CCOC(=O)c1cncc(C(=O)O)c1	-5%	0.8	5.3%	-1	-0.7%	4	-1.0
CC(=O)Nc1cccc(NC(=O)CS(=O)(=O)c2cn(CC(=O)N3CCCC3)c3ccccc23)c1	6%	0.5	0.3%	13	0.7%	0	.
CCC(=O)N1CCc2cc(CNS(=O)(=O)c3cc(Cl)ccc3OC)ccc21	.	0.6	-4.2%	.	0.5%	-12	.
O=C(Nc1ccc(Cl)c(C(F)(F)F)c1)C(Cc1ccccc1)NS(=O)(=O)c1ccc(Br)s1 (centres undefined)	.	0.9	1.1%	.	1.8%	9	.
CC(=O)NC1(C(F)(F)F)C(=O)NC(C)=C1C#N (centres undefined)	2%	-0.4	-2.7%	-12	-0.7%	33	-1.3
CN(CC(=O)Nc1cccc(F)c1)C(=O)c1cccc2ccccc12	.	-0.2	1.7%	-4	1.9%	1	.
CC1(C)C(C=C(Cl)Cl)C1C(=O)OCc1cccc(Oc2ccccc2)c1 (centres undefined)	4%	-0.6	0.1%	16	7.3%	0	-5.5
O=C(CSC1CC(=O)N(CCc2ccccc2)C1=O)Nc1cccc(Cl)c1 (centres undefined)	-15%	-0.7	-4.8%	23	4.1%	13	3.2
O=C(COc1ccccc1F)Nc1c(C(=O)Nc2cccc(F)c2)oc2ccccc12	.	1.2	79%	.	0.9%	23	.
COc1ccc(NC(=O)c2cc3ccccn3n2)cc1	8%	-0.1	-2.1%	-15	1.9%	0	4.2
CC1=CC(=O)[C@@H](OC(=O)Nc2ccc(C)cc2)[C@@H](c2ccccc2Br)N1C	.	1.1	1.2%	.	0.3%	-12	.
CN(C)CCCn1c2c3ccccc3ccc2c2oc(=O)c3ccccc3c21	.	-0.4&0.4	39%&4.1%	.	-5.9%&0.4%	-5	.
Cc1ccc(C(=O)Nc2ccccc2C(=O)NCc2ccco2)cc1	.	-0.2	32%	.	11%	8	.
COc1ccc(OC(C)C(=O)NC2CCCCCCC2)cc1 (centres undefined)	.	1.4	-1.9%	.	-0.9%	8	.
CCOC(=O)C(C(=O)NCc1ccc(F)cc1)c1ncc(C(F)(F)F)cc1Cl (centres undefined)	1%	0.1	-0.6%	22	0.9%	-10	9.4
CCN(CC)S(=O)(=O)c1cc([N+](=O)[O-])ccc1NNC(=O)Nc1ccc(F)cc1	45µM*	0.4	-3.1%	-11	.	15	0.7
CCCS(=O)(=O)N1CCCC(C(=O)N2CCC(Cc3ccccc3)CC2)C1 (centres undefined)	-3%	-0.6	-0.9%	-26	0.4%	-1	4.8
COC(=O)C1CCN(S(=O)(=O)CCNC(=O)c2ccccc2)CC1	.	0.3	-1.9%	.	-0.1%	14	.
Cc1ccc2c(=O)cc(C(=O)Nc3sc4c(c3C(=O)NCc3ccco3)CCCC4)oc2c1C	.	0.5	0.2%	.	11%	5	.
COC(=O)c1ccc(C)cc1	.	0.6	-3.8%	.	0.0%	21	.

Later entries:
compound	Sfp PPTase inh	TRPML1 ag	ClpP mod	TRPV1 PAM	PINK1 expr mod	TRPML1 inh	Menin-MLL FL inh
CC1CCCCN1CCNC(=O)C1CCCN(c2ncnc3c2nc2n3CCCCC2)C1 (centres undefined)	7%	-0.6	.	-4	-1.5%	45	-3.1
Nc1nonc1-c1nc2ccccc2[nH]1	5%	-0.7	-10.0%	-18	-2.0%	-4	4.4
Cc1cc(C)n(CC(=O)n2c3c(c4ccccc42)CCCC3)n1	-25%	1.7	0.7%	-4	4.3%	4	3.5
CCOC(=O)c1ccccc1NC(=O)CSc1nncn1C	-7%	-0.3	-0.2%	2	0.9%	29	0.0
COc1ccc(S(=O)(=O)N2CCN(Cc3cc4c(cc3Br)OCCO4)CC2)cc1	.	0.8	-1.9%	.	-2.5%	1	.
CC(=O)C1=C(O)C(=O)N(c2ccccn2)C1c1ccc(C)cc1 (centres undefined)	-3%	-1.1	-5.9%	?	3.1%	16	-0.9
Cc1cc(C)cc(NC(=O)CN(C)S(=O)(=O)c2ccc3c(c2)CCC(=O)N3)c1	.	-0.6	1.5%	.	6.4%	5	.
COC(=O)c1ccccc1NC(=O)c1cc2cc(C)ccc2n1C	.	-1.0	4.4%	.	2.1%	-5	.
O=S(=O)(c1ccccc1)n1ccc2cccnc21	10%	0.5	0.4%	-25	0.7%	3	0.7
COc1ccccc1-n1c(=O)[nH]c2c(C(N)=O)nc(-c3cccnc3)nc21	11%	-0.2	4.8%	-2	0.4%	4	0.1
Cc1ccc(C(=O)c2coc3ccc(O)c(CN4CCN(C)CC4)c23)cc1	?	-0.4	1.0%	-4	-0.9%[38.3 µM]	-10	-0.6
COc1ccc(CCNC(=O)CCc2c(C)c3ccc(O)c(C)c3oc2=O)cc1	.	-0.9	4.0%	.	1.2%	-18	.
CCOc1ccc(NC(=O)c2ccc3c(c2)OCCO3)cc1S(=O)(=O)N(CC)CC	.	-0.3	-3.4%	-9	-0.4%	16	.
O=C(OC1CCCCC1=O)c1cccc(S(=O)(=O)NCc2ccccc2)c1 (centres undefined)	-3%	-0.8	0.7%	12	1.0%	22	1.8
O=[N+]([O-])c1cc(S(=O)(=O)N2CCCC2)ccc1OCCOc1ccccc1	.	0.5	1.5%	5	-0.6%	2	.
O=C1CC(c2ccccc2)CC(O)=C1C=NC1CCCCCC1 (centres undefined)	1%	0.0	0.0%	13	-2.6%[38.3 µM]	7	0.6

Screening data: PubChem, National Center for Advancing Translational Sciences (NCATS)
